MLL AF4-AF9 inh: inhibitors of AF4 peptide binding to AF9, primary screen, biochemical, AlphaScreen, biotin-AF4 peptide, FLAG-AF9, single point | inhibition, % at 10 µM | AID 651704, 2012 | Protein AF-9 (Homo sapiens), P42568 | actives 0.47% (n = 350,000);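 active means every replicate reaching a set inhibition limit, whatever the replicate mean, cut at about 25% in these data; inconclusive means mean inhibition reaches that limit but some replicates miss it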;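 further: 0% = plate neutral control median and 100% = total signal loss; the record names both 10 and 1 µM as test concentration; the first replicate is given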
Target sequence (P42568 whole entry, looked up): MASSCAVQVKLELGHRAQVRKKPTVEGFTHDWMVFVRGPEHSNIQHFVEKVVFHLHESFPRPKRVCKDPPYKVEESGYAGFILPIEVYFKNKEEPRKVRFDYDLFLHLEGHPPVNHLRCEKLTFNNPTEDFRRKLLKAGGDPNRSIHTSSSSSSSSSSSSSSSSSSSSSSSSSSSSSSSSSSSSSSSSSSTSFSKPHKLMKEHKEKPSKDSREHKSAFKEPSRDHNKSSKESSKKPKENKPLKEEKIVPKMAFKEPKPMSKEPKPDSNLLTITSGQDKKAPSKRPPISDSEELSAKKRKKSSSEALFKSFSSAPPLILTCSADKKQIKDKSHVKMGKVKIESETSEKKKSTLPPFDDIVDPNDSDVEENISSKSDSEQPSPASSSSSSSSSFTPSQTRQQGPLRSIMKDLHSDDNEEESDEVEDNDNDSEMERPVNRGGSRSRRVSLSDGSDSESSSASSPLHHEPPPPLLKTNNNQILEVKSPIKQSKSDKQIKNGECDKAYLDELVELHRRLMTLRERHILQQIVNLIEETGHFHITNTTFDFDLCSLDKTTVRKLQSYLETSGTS
FGF22 binding: binders of human FGF22 protein, primary screen, FGF22 synaptogenesis inhibitor project, biophysical, thermal shift, single point | recombinant FGF22 thermal shift, SYPRO orange fluorescence; percent of sucrose octasulfate shift, DMSO zero | AID 651658, 2012 | Fibroblast growth factor 22 (Homo sapiens), Q9HCT0 | calls only at 9.99 µM | actives 1.5% (n = 340,000);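 active means melting point raised past a set limit in the mean and every replicate; inconclusive means no clear call; three in four hits are not shown here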
Target sequence (Q9HCT0 whole entry, looked up): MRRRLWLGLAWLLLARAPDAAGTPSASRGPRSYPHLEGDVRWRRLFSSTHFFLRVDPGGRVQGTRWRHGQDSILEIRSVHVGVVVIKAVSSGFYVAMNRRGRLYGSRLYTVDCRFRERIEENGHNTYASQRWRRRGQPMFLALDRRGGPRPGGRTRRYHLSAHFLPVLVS
E coli growth: E. coli growth inhibition, primary screen, OD600. OD600 absorbance (no concentration beside the values). Escherichia coli growth, 23 h; hits give low values. actives 0.21% (n = 330,000);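 active means OD600 absorbance below the run mean of sample wells minus 3.6 SD, in any replicate, cut at about 0.56 in these data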;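 further: stock transfer was 300 nL into about 60 µL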
UCH37 inh: inhibitors of human UCH37 deubiquitinase, primary screen, biochemical, Ub-AMC cleavage, fluorescence. purified proteasome/UCH37. actives 0.33% (n = 330,000). AID 588478, 2011. inhibition, % (concentration not given with the values);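 active means mean of two replicates above 20%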;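 further: 0% = compound-free wells with enzyme and 100% = wells lacking proteasome; stock transfer was 100 nL into about 20 µL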
Target sequence (Q9Y5K5 whole entry, looked up): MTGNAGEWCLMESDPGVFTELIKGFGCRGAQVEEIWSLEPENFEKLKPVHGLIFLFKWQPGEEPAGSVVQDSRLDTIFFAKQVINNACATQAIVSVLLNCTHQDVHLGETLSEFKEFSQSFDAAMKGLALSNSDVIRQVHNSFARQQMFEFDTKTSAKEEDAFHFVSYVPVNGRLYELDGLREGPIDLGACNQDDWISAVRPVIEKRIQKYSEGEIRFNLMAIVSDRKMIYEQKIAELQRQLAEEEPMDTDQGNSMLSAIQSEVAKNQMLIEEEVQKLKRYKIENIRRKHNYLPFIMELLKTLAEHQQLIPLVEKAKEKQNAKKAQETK
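System: Proteasome-associated human UCH37 deubiquitinase; Input: 0.15 nM proteasome in added enzyme buffer; Also added: Ub-AMC substrate from 1 µM stock; Incubation: 30 min compound-proteasome preincubation then 25 min substrate reaction, room temperature; Detection: fluorescence, ex 355 nm, em 460 nm; Read-out: % inhibition of Ub-AMC cleavage fluorescence; Benchmarks: no-proteasome and no-compound wells.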
HNF4A DNA FP: change in binding of human HNF4A to DNA, primary screen, biochemical, fluorescence polarization, FITC-DNA; Hepatocyte nuclear factor 4-alpha (Homo sapiens), P41235; 1 h; activity change, % at 10 µM; actives 0.3% (n = 360,000); AID 1224865, 2016; in the data active means activity change above about 30%, passing the limit was not always enough;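 further: controls were the assay level and a saturating level of protein; the project sought stronger binding though the title names inhibitors; some compounds called inactive have numbers as strong as hits; positive values seem to mean higher polarization but the record does not say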
RanGTP-Impb inh: inhibitors of RanGTP-importin-beta interaction, primary screen, biochemical, FRET, CFP-Ran, YFP-importin-beta, homogeneous; cell-free CFP-Ran/YFP-importin-beta FRET ratio; inhibition, % (test concentration not listed); actives 1.1% (n = 300,000);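 active means most replicates above 15%; inconclusive means exactly half above 15%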;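 further: 0% = DMSO wells and 100% = Ran loaded with GDP instead of GTP; wells of about 40 µL received 100 nL stock; the first replicate is given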
Vif A3G: inhibitors of Vif binding to APOBEC3G peptide, primary screen, biochemical, TR-FRET, GST-Vif 1-94, biotin-A3G peptide, dose response retest (AID 1117319) | Virion infectivity factor (Human immunodeficiency virus type 1 group M subtype B (isolate … | TR-FRET GST-Vif / biotin-A3G peptide binding; higher % means a stronger effect; test concentration not given here; strong numbers were not always called active | one-dose inhibition, %; IC50 in µM for titrated hits | actives 0.57% (n = 260,000);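 active means above the screen mean plus three standard deviations and confirmed in dose response; inconclusive means results disagree or hit not tested in dose response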;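 further: Vif residues 1-94 fused to GST binding biotinylated APOBEC3G peptide 110-148; 0% = full assay without inhibitor and 100% = GST in place of GST-Vif; retest series ran down from 100 µM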
Numbers without * were called inactive; i = inactive; ? = inconclusive; · = no result given. A portion of the library; the hit share may differ from the screen's.

SMILES	MLL AF4-AF9 inh	FGF22 binding	E coli growth	UCH37 inh	HNF4A DNA FP	RanGTP-Impb inh	Vif A3G
O=C(O)CC(CNC(=O)C1CCCN1C(=O)OCc1ccccc1)c1ccccc1 (stereo unspecified)	-1.1	i	0.69	0.1	2.5	-2.6	4%
COc1ccc(C2=CC(c3ccc(C)cc3)n3nnnc3N2)cc1 (stereo unspecified)	·	·	0.72	-10.0	-14	-1.4	6%
COc1ccc(N2CCN(c3ccc(N)cc3C#N)CC2)cc1	·	·	0.77	-15	-3.3	-1.2	12%
O=C(Cc1cccs1)Nc1ccc(-c2nnn(CC(=O)N3CCOCC3)n2)cc1	·	·	0.72	-1.1	·	-1.0	3%
CCc1ccc(O)c(N=Cc2cccc(C)c2O)c1	0.3	i	0.71	0.5	19	5.2	?
CCOC(=O)c1cc(-c2ccc(F)cc2)n(CC(=O)NCc2ccccn2)c1C	-1.4	i	0.7	1.3	2.3	3.6	5%
COc1ccc(OC)c(-n2c(SCC(=O)NCc3ccco3)nnc2-c2c[nH]c3ccccc23)c1	-0.5	i	0.76	5.8	1.2	2.5	2%
CCOc1ccccc1C1CC(=O)NC2=C1C(=O)CCC2 (stereo unspecified)	·	·	0.69	0.0	1.9	-2.4	3%
CCCC(=O)Nc1nnc(SCC(=O)Nc2ccc3c(c2)OCCO3)s1	-3.1	i	0.73	-1.8	1.1	2.0	·
Cc1cc(NC(=O)CCC(=O)N(Cc2ccc(F)cc2)C(C(=O)NC2CCCC2)c2ccco2)no1 (stereo unspecified)	-0.7	i	0.67	-0.1	0.7	-0.9	·
CC(C)CSc1nc2ccccc2n1CC(N)=O	·	·	0.71	0.3	-3.8	5.2	?
CCN(CC)C(=O)CSc1ccc(C(F)(F)F)cc1[N+](=O)[O-]	·	·	0.72	-0.1	1.0	-3.6	-5%
COc1cc(Cl)cc(/C=N\NC(=O)c2ccc3c(c2)OCO3)c1O	-0.8	i	·	·	5.7	·	0%
COc1ccc(C2CC(c3ccccc3OC(C)=O)=NN2C(=O)/C=C/c2ccccc2)cc1 (stereo unspecified)	·	·	0.7	1.8	1.4	4.0	-4%
O=C(NCc1ccco1)c1csc2c1CCCCC2	2.1	i	0.66	0.4	-0.2	0.4	29%
COCc1cc(=O)[nH]c(SCC(=O)N2CCOCC2)n1	0.2	i	0.67	1.8	2.1	-1.1	·
COc1cc(/C=C/c2ccc3c(Br)cc(Br)c(O)c3n2)ccc1O	0.1	i	0.7	-26	7.5	5.1	16%
O=C(NCCCN1CCN(c2ccccc2F)CC1)C1CCC(=O)N1C1CCCC1 (stereo unspecified)	·	·	0.72	4.2	-1.8	0.7	8%
O=C(Nc1cccnc1)c1cc2cc(Br)ccc2oc1=O	-1.4	i	0.69	1.2	-1.3	4.4	-2%
CC(C)C[C@@H]1NC(=O)[C@H](C(C)C)NC(=O)c2cc([N+](=O)[O-])cc(I)c2OCC[C@@H](C(N)=O)NC1=O	·	·	0.76	4.6	1.3	·	12%
CC(=O)Nc1ccc(S(=O)(=O)N2CCN(CC(=O)N3CCOCC3)CC2)cc1	-0.6	i	0.69	0.2	-1.1	4.5	·
CC(=O)Nc1ccc(-c2csc(NC(=O)CCNC(=O)c3ccco3)n2)cc1	-1.8	i	0.67	0.8	7.9	·	-7%
CNC(=O)C[C@H]1C(=O)N(CCc2ccccc2)C[C@@H]1CSC	-1.2	i	·	·	-5.9	·	-6%
O=C(O)Cc1ccc(NC(=O)c2ccc(NC(=O)c3ccco3)cc2)cc1	·	·	0.73	6.7	-0.7	2.0	16%
c1ccc(-n2nnnc2-c2cccnc2)cc1	-6.5	i	0.69	4.6	2.0	-5.7	·
SMILES	MLL AF4-AF9 inh	FGF22 binding	E coli growth	UCH37 inh	HNF4A DNA FP	RanGTP-Impb inh	Vif A3G
CCN1CCN(c2ccc(S(=O)(=O)N3CCCCC3)cc2NC(=O)c2ccccc2)CC1	-30	i	0.72	1.2	1.3	11	-3%
COC(=O)N1N=C(c2ccc(Br)cc2)CC1(O)C(F)(F)F (stereo unspecified)	·	·	0.72	0.9	-1.9	-1.3	-13%
CCn1c(C)nc2cc(S(N)(=O)=O)ccc21	0.4	i	0.7	1.2	-0.8	?	?
O=S(=O)(c1ccccc1F)N(Cc1ccco1)Cc1nnc(-c2ccccc2Br)o1	·	·	0.72	5.2	0.4	·	27%
CC(C)Oc1ccc(S(=O)(=O)N2CCCCC2)cc1NC(=O)C1CCC1	-8.2	i	0.66	-0.8	-1.5	0.6	0%
C=CCNC(=O)CSc1nc2sc3c(c2c(=O)n1CCCOC)CCC3	-0.6	i	0.68	8.2	4.3	1.9	8%
O=C1c2cccc3cccc(c23)C(=O)N1CCO	2.6	i	·	·	0.6	·	·
COc1ccc(NC(=O)CN2C(=O)NC3(CCCCCCC3)C2=O)cc1	-3.1	i	0.65	-0.8	-0.1	·	-5%
O=CN1CCN(C(=O)c2ccc([N+](=O)[O-])cc2)CC1	·	·	0.64	3.9	-0.1	-2.7	27%
O=c1[nH]c2ccsc2c(=O)n1-c1ccc(F)cc1	·	·	0.7	1.8	2.0	1.4	-1%
CCCc1cc(C(=O)N2CCCN(C)CC2)cs1	0.1	i	0.71	-1.0	2.7	·	-7%
Cc1ccc(C)c(S(=O)(=O)NCc2cccnc2)c1	·	·	0.72	4.4	-3.6	4.0	7%
COCCCN=Cc1c(C)[nH]n(-c2ccc(Br)c(C)c2)c1=O	·	·	0.67	3.9	-1.7	0.8	1%
Cc1ccc(-n2nnnc2Sc2nc([N+](=O)[O-])nn2C)cc1C	·	·	0.71	20*	0.0	-4.1	-3%
C/C(=N\NC(=O)c1ccn(C)n1)c1ccco1	-9.6	i	·	·	2.5	0.8	·
COc1ccc(-c2nc(CS(=O)(=O)CC(=O)NCCCN3CCN(C)CC3)c(C)o2)cc1	5.1	i	0.68	2.7	1.2	-1.6	·
CCn1c(SCC(=O)N2CCC(C)CC2)nc2c1c(=O)n(C)c(=O)n2C	-1.2	i	0.63	0.3	3.0	1.6	6%
CCOc1cc2c(cc1OCC)C(C(=O)O)C(c1cc(Br)c(O)c(OC)c1)N(C)C2=O (stereo unspecified)	·	·	0.71	-2.1	-6.3	·	-9%
O=C(O)CCCN1C(=O)C(=O)/C(=C(/O)c2ccc(Cl)cc2)C1c1ccccc1 (stereo unspecified)	-0.5	i	0.71	10.0	-2.2	1.6	2%
Fc1cc(Br)ccc1NC(=S)Nc1ccccc1	·	·	0.62	2.4	-0.8	1.9	·
Cn1cc(-c2ccc(C(=O)Nc3cccc(Oc4ccccc4)c3)c3occc23)cn1	-6.9	i	·	·	8.4	·	·
O=C(COC(=O)c1ccc(F)c(S(=O)(=O)N2CCOCC2)c1)c1ccc(Br)cc1	0.7	i	0.69	0.0	-2.6	·	-14%
Cc1cccc(C(OC(=O)c2ccco2)C(=O)NCc2ccccc2)n1 (stereo unspecified)	·	·	0.68	-1.2	1.1	?	28%
Clc1ccc(Cc2ccccn2)cc1	-1.0	i	0.67	-2.7	2.0	·	7%
NC(=O)CCNC(=O)c1ccc(Cl)cc1	·	·	0.64	0.6	1.8	2.6	4%

Entries above with a CF3 group:
SMILES	MLL AF4-AF9 inh	FGF22 binding	E coli growth	UCH37 inh	HNF4A DNA FP	RanGTP-Impb inh	Vif A3G
CCN(CC)C(=O)CSc1ccc(C(F)(F)F)cc1[N+](=O)[O-]	·	·	0.72	-0.1	1.0	-3.6	-5%
COC(=O)N1N=C(c2ccc(Br)cc2)CC1(O)C(F)(F)F (stereo unspecified)	·	·	0.72	0.9	-1.9	-1.3	-13%

Next section:
SMILES	MLL AF4-AF9 inh	FGF22 binding	E coli growth	UCH37 inh	HNF4A DNA FP	RanGTP-Impb inh	Vif A3G
COCCNc1c(-c2ccc(OC)cc2)nc2ccc(Cl)cn12	4.7	·	0.69	-28	-1.6	?	-8%
O=C(NCC(=O)N1CCN(c2ccccc2O)CC1)C1CCCCC1	0.0	·	0.71	-0.5	-0.1	-3.2	-3%
Cc1cc(-c2nc3c4c5c(sc4[nH]c(=O)n3n2)CCC5)c(C)o1	·	·	0.69	3.3	-1.7	-4.0	0.69µM*
O=C(CC1SC(N2CCCCC2)=NC1=O)Nc1ccc(C(=O)NCCc2ccc(F)cc2)cc1 (stereo unspecified)	1.1	i	0.63	1.9	-1.2	·	-4%
CCOc1ccc(N=C(C)C2=C(O)c3ccccc3C2=O)cc1	-0.4	i	0.62	3.0	5.9	-0.5	·
COc1cc(/C=N/NC(=O)C(N)=O)cc(OC)c1O	-6.2	i	·	·	-4.6	-0.7	·
O=C(NCCC1=CCCCC1)C1CCCN(S(=O)(=O)c2ccccc2)C1 (stereo unspecified)	·	·	0.63	4.5	-1.5	-1.4	-2%
CC1(C)CC(=O)c2c(oc3ccc(NS(=O)(=O)c4cccc5cccnc45)cc23)C1	-3.2	i	0.71	2.0	2.9	1.3	-5%
CC(C)(C)c1ccc(SCCc2ccncc2)cc1	-0.6	i	0.6	5.3	2.6	4.5	·
O=C(CN1C(=O)C2C3C=CC(C3)C2C1=O)NCC1COc2ccccc2O1 (stereo unspecified)	·	·	0.71	1.6	5.2	0.0	-7%
CCOC(=O)C1=C(COC(=O)c2cccc(Cl)c2)NC(=O)NC1C (stereo unspecified)	1.5	i	0.74	3.0	1.4	0.3	·
O=C(NCc1cccnc1)c1ccccc1NS(=O)(=O)c1ccc(F)cc1	-1.6	i	0.66	-8.7	-2.2	-1.0	·
CC(=O)c1cccc(Nc2nc(N3CCOCC3)nc(N3CCOCC3)n2)c1	0.2	i	0.67	-3.4	-1.5	-1.0	-6%
Cn1c2ccccc2c2c(C(=O)N3CCN(c4ccc(F)cc4)CC3)cn(C3CCCC3)c(=O)c21	·	·	0.75	-14	2.7	-3.7	-2%
Cc1ccc(NC(=S)N(Cc2ccccc2)C(C)C)cc1	3.9	i	0.68	2.4	-2.9	-0.1	·
CC(=O)N1CCN(CC(=O)Nc2ccc(C)c(F)c2)CC1	1.8	i	0.67	0.1	-4.2	-1.9	-3%
CCn1c(-c2ccoc2C)n[nH]c1=S	·	·	0.74	2.0	-3.4	-4.6	3%
COc1cc(CN2CCCC(CO)(Cc3ccccc3F)C2)ccc1O (stereo unspecified)	-0.1	i	0.7	1.7	0.3	1.6	·
O=C(O)c1ccc(-c2nc(-c3ccc(Cl)cc3Cl)cs2)cc1	-4.8	i	0.71	-7.0	-0.5	0.5	-1%
CCN(C(=O)CSc1nc2ccccc2o1)C1CCS(=O)(=O)C1 (stereo unspecified)	-11	i	0.64	0.7	0.3	-0.3	-1%
CC(C)c1ccccc1NCC(=O)N1CCN(Cc2ccccc2)CC1	6.2	i	0.68	3.8	1.9	-1.4	9%
Cc1oc(C(=O)O)cc1CSc1nnc(-c2ccccc2)n1C	·	·	0.73	2.3	1.5	0.2	?
CCc1nc2c(nnn2Cc2ccc(F)cc2)c(=O)[nH]1	·	·	0.71	0.8	5.2	3.5	-4%
C[C@@H](O)CNC(=O)c1[nH]cnc1C(=O)Nc1ccc(CNC(=O)OC(C)(C)C)cc1	0.1	i	·	·	3.3	·	5%

Sorted by value in Vif A3G (ascending): 3 from the list above.
SMILES	MLL AF4-AF9 inh	UCH37 inh	RanGTP-Impb inh	Vif A3G
COC(=O)N1N=C(c2ccc(Br)cc2)CC1(O)C(F)(F)F (stereo unspecified)	·	0.9	-1.3	-13%
CCCc1cc(C(=O)N2CCCN(C)CC2)cs1	0.1	-1.0	·	-7%
CCN1CCN(c2ccc(S(=O)(=O)N3CCCCC3)cc2NC(=O)c2ccccc2)CC1	-30	1.2	11	-3%

From PubChem
